# AID504770 = growth inhibitors of E. coli YBA685 in a screen for V. cholerae RctB (chromosome II replication) inhibitors; E. coli YBA685 rctB-dependent plasmid, OD600 growth, 3 h; active compounds read low; z-score (concentration not given with the values); 130,000 compounds, 0.27% hits; AID 504770;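 active = z-score under -2 on both plates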;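 also: wells of about 30 µL received 100 nL stock; score is relative to mean and SD of the test wells; the first replicate is given; strong numbers were not always called active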
# CapD inh = inhibitors of Bacillus anthracis CapD enzyme; purified CapD enzyme, fluorescence intensity read-out; active compounds read low; some hits fall short of the stated cut; AID 492967; 140,000 compounds, 0.23% hits; z-score (concentration not given with the values);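 active = z-score under -4 in either of two replicates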;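 also: stock transfer was 100 nL into about 40 µL; score is relative to mean and spread of the plate; one replicate is shown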
# Active calls of the source: *; nt = not tested or not shown; & = joins results of further samples.
SMILES,AID504770,CapD inh
COc1cccc2cc(-c3nnc(NC4CCCCC4)s3)c(=O)oc12,nt,-0.16
O=C(Nc1ccc(Cl)cc1)C12CC3CC(CC(O)(C3)C1)C2,0.1,nt
O=C(CN1N=C(c2ccccc2)CCC1=O)NCCC1=CCCCC1,0,0.14
Cc1cccc(C)c1N=C1Oc2ccccc2N(C(=O)C(F)(F)F)C1(C)c1ccccn1 (stereo not drawn),0.35,-0.07
O=C(O)CCCC(=O)Nc1ccccc1Oc1ccccc1,-0.45,-2*
Cc1cc(NC(=O)CC2(CC(=O)O)CCCC2)n(C)n1,1.4,0.26
Cc1nn2c3ccccc3nc2n(-c2ccccc2)c1=O,0.05,0.25
CSc1ccsc1C1=NC(C)(C)CO1,-0.4,0.46
Cc1ccccc1CN(C)C(=O)c1ccc2ccccc2n1,0.35,nt
Oc1ccc(Cl)cc1C=NCc1cccs1,1,-0.36
COC(=O)C1=C(C)Nc2nc3ccccc3n2C1c1ccccc1 (stereo not drawn),-0.5,nt
CC(C)N(C(=O)NC(=O)c1ccc(-c2csnn2)cc1)C(C)C,nt,0.78
Cc1ccc(-c2ccc(C3C4=C(CC(C)(C)CC4=O)OC4=C3C(=O)CC(C)(C)C4)o2)cc1Cl,nt,-1.2
CCCc1nnc(/N=C/c2cc(-c3ccccc3)oc2O)s1,0.15,4.9
CCCCCn1c(NCc2ccc(N(C)C)cc2)nc2ccccc21,-0.3,0.01
COc1ccc(N=C2NC(=O)/C(=C\c3ccc(OC)c(OC)c3)S2)cc1,nt,-0.84
CC(C)NC(=O)c1ccoc1COc1ccccc1,0.2,nt
Cc1cc(C)nc(N2CCC(C(=O)NCc3ccccc3)CC2)n1,nt,-0.015
N#Cc1c2c(c(Cl)n3c1nc1ccccc13)CCC2,0.45,-0.49
c1ccc(CN2CCN(Cc3ccncc3)CC2)cc1,0.6,0.55
COc1cc(/C(N)=N/O)cc(OC)c1OC,-0.1,0.53
Cc1ccc(C)c(OCCn2nnc3ccccc32)c1,-0.4,nt
Cc1cc(C)c(CSC(C)(C)CNc2ncccc2[N+](=O)[O-])c(C)c1,nt,0
Brc1ccc(-c2nc3ccccc3nc2-c2ccc(Br)cc2)cc1,nt,2.2

# Sorted by molar mass (low to high): part of the list above
SMILES,AID504770,CapD inh
Oc1ccc(Cl)cc1C=NCc1cccs1,1,-0.36
Cc1cc(C)nc(N2CCC(C(=O)NCc3ccccc3)CC2)n1,nt,-0.015
COc1ccc(N=C2NC(=O)/C(=C\c3ccc(OC)c(OC)c3)S2)cc1,nt,-0.84
Cc1cccc(C)c1N=C1Oc2ccccc2N(C(=O)C(F)(F)F)C1(C)c1ccccn1 (stereo not drawn),0.35,-0.07
Cc1ccc(-c2ccc(C3C4=C(CC(C)(C)CC4=O)OC4=C3C(=O)CC(C)(C)C4)o2)cc1Cl,nt,-1.2

# New compounds follow
SMILES,AID504770,CapD inh
CCOC(=O)c1sc(=S)n(Cc2ccccc2)c1N,nt,-0.15
CN(c1ccccc1)S(=O)(=O)c1ccc(C(=O)O)cc1,0.55,0.72
CC(=O)C1=NN(c2ccc(C)cc2)C2(S1)SC(c1ccc(Cl)cc1)(c1ccc(Cl)cc1)c1ccccc12 (stereo not drawn),nt,0.15
O=C1C[C@H](NC(=O)OCc2ccccc2)CO1,-1.1,0.51
CN(CC(=O)Nc1ccc(F)cc1)C(=O)c1ccc(-c2ccc(F)cc2)o1,0,nt
c1ccc(Cn2ncc3c(Nc4ccc5ccccc5c4)ncnc32)cc1,1.4,8.4
Cc1ccc(CCNC(=O)NC(C)(C)C)cc1,0.35,0.38
NC(=O)C1(N2CCCCC2)CCN(c2ccc3nnc(-c4ccccc4)n3n2)CC1,0.8,0.31
COc1cc(/C=C2\C(=O)N(c3ccc(Cl)c(C(=O)O)c3)N=C2C)cc([N+](=O)[O-])c1O,nt,-0.82
O=C(CSc1nnc(-c2ccncc2)n1Cc1ccco1)OC1CCCCC1,0.15,nt
CCOC(=O)c1[nH]c(CSc2nnnn2-c2ccccc2C)c(C(=O)OCC)c1C,0.9,nt
O=C(CCSc1nc2ccccc2o1)Nc1ccc(Br)cc1,-0.3,0.095
COC(=O)C1=C(C)N(c2ccc(OC)cc2)C(=O)/C1=C\c1ccccc1O,1.1,-0.97
COc1cc2nc3n(Cc4ccccc4)c4ccccc4n3c(=O)c2cc1OC,0.4,3.4
CC1CCCCN1CCNC(=O)c1nc(-c2cccnc2)no1 (stereo not drawn),0.45,-0.29
Cc1c(-c2ccccc2)c(=O)oc2cc(OCC#N)ccc12,-0.35,nt
CCN1CCCC1CNC(=O)CCCOc1cc(=O)n(C)c2ccccc12 (stereo not drawn),0.45,0.27
O=C1CC(c2ccccc2)c2cccc(N3CCN(c4ccccc4)CC3)c21 (stereo not drawn),nt,-0.18
Cc1cc(C)n(C(C)CC(=O)Nc2ccc(CN3CCC(C)CC3)cc2)n1 (stereo not drawn),0.85,-0.01
CCN1CCN(c2nc(-c3ccccc3Cl)nc3ccccc23)CC1,nt,-0.4
CCOC(=O)CNCc1ccc(Cl)cc1,-1.2,-0.43
COc1ccc2c(COC(=O)Cn3cnnn3)cc(=O)oc2c1,1.4,nt
COc1ccc(Br)c(-c2nc(Cc3ccccc3Cl)no2)c1,nt,0.24
CCn1nc(-c2cccs2)cc1C(=O)N(C)C,-0.5,1.1
O=C(CCCCl)Nc1nc(-c2cccs2)cs1,-0.9,-0.61
COc1ccc(-n2ncc(N(C)CCOC(=O)C3CC3)c(Cl)c2=O)cc1,nt,-0.47
c1coc(C(CNc2ncnc3sc4c(c23)CCC4)N2CCCCC2)c1 (stereo not drawn),0.35,nt
CC(NC(=O)CSc1ccccc1)c1ccc(S(N)(=O)=O)cc1 (stereo not drawn),0.3,nt
CCSC1=C(C#N)C(c2ccc(Cl)cc2)C(C(=O)OC(C)(C)C)=C(C)N1 (stereo not drawn),-0.45,6.7
CC1=NN(c2ccc(S(N)(=O)=O)cc2)C(=O)/C1=C\c1ccco1,0.4,0.45
CCOC(=O)Cc1csc(-c2ncc(C(F)(F)F)cc2Cl)n1,-0.65,65
CCOC(=O)NC(=S)Nc1ccc(OC)cc1,-0.35,-0.85
CCOC(=O)c1c[nH]c(=S)n1C,0.7,0.15
CCOC(=O)C1=c2s/c(=C/c3ccc(CC)cc3)c(=O)n2C(N)=C(C#N)C1c1ccc(CC)cc1 (stereo not drawn),nt,-0.33
CC(=O)NC1=NC(=O)CS1,-0.65&-0.1,0.12&0.39
CCCCCCCCCCCCCCCCCCNS(=O)(=O)c1ccc2c(c1)C(=O)c1cc(S(=O)(=O)NCCCCCCCCCCCCCCCCCC)ccc1-2,nt,-0.2

# The closing 5 compounds of the section before open the next one.
SMILES,AID504770,CapD inh
CCOC(=O)NC(=S)Nc1ccc(OC)cc1,-0.35,-0.85
CCOC(=O)c1c[nH]c(=S)n1C,0.7,0.15
CCOC(=O)C1=c2s/c(=C/c3ccc(CC)cc3)c(=O)n2C(N)=C(C#N)C1c1ccc(CC)cc1 (stereo not drawn),nt,-0.33
CC(=O)NC1=NC(=O)CS1,-0.65&-0.1,0.12&0.39
CCCCCCCCCCCCCCCCCCNS(=O)(=O)c1ccc2c(c1)C(=O)c1cc(S(=O)(=O)NCCCCCCCCCCCCCCCCCC)ccc1-2,nt,-0.2
c1ccc(CSc2nnc3n(CCOc4ccccc4)c4ccccc4n23)cc1,0.05,0.035
CCOc1ccc(C(N)=S)cc1OC,-0.3,nt
CCc1nnc(NC(=O)CSc2nnc(NC(=O)c3cccc([N+](=O)[O-])c3C)s2)s1,nt,0.12
COC(=O)c1ccc(OC(=O)COC(=O)CN2C(=O)c3ccccc3C2=O)cc1,-0.8,-0.095
C=CCN(CC=C)Cc1c(C)[nH]c2ccccc2c1=O,0.55,0.43
CN1C(C(=O)NCC2CCCO2)=CC(c2ccco2)=NS1(=O)=O (stereo not drawn),-1.2,0.4
O=C(Cn1c(=O)n2nc(-c3ccccc3)nc2c2ccccc21)c1ccc(Br)cc1,0.35,0.24
COC(=O)c1ccc(-c2nc(-c3ccccc3)cs2)cc1,0.45,2.7
CCCN1CCN(C(=O)c2ccc(-n3c(-c4ccccc4)nc4cccnc43)cc2)CC1,-0.65,1.8
CCCn1c(=O)c2ccccc2n2c(Sc3nnnn3-c3ccccc3)nnc12,1.8,nt
OCCNC12CC3CC(CC(C3)C1)C2,-0.6,0.57
Cc1cccc(-n2nc3c(c2NC(=O)c2ccc(S(=O)(=O)N4CCCC4)cc2)CS(=O)(=O)C3)c1C,nt,-0.015
COc1ccc(C2c3[nH]c4ccccc4c3CCN2C(=O)c2ccc(F)cc2F)cc1 (stereo not drawn),nt,0.21
CN(C)c1nccc(Nc2ccccc2)c1C#N,-0.2,2.6
Cc1ccc(NCC(O)Cn2c(-c3ccccc3)c(-c3ccccc3)c3ccc4ccccc4c32)cc1 (stereo not drawn),nt,2.6
O=c1c2ccccc2[nH]c(=S)n1CCO,3,-1.5
CCC(C)Nc1ncnc2c1cnn2Cc1ccc(Cl)cc1 (stereo not drawn),0.7,0.43
C/C(=N/N1CCc2ccccc21)C(=O)NCc1cccc(C(F)(F)F)c1,nt,-1.7
Cc1cc(C)nc(SCc2ccccc2C(=O)N2CCN(Cc3ccc(C#N)cc3)CC2)n1,-0.45,nt
O=c1cc(C23CC4CC(CC(C4)C2)C3)[nH][nH]1,-1,0.19
O=c1c2ccccc2[nH]c(=S)n1-c1ccccc1,-0.65&0.45,0.58
COc1ccc(C(=O)CSc2nc3ccccc3c(=O)n2-c2ccc(C)cc2)cc1,1,0.17
CCC(C)(C)c1cc2cc(NC(=O)c3cccc(C(F)(F)F)c3)ccc2[nH]1,nt,-0.38
COc1ccccc1C(=O)Nc1nnc(SCc2cccc(F)c2)s1,-0.4,0.27
CC1CSC(N(C(=O)c2cnccn2)c2ccc(Cl)cc2)=N1 (stereo not drawn),-0.4,nt
COc1ccccc1CNC(=O)/C=C/C(=O)O,-1.6,-0.37
CCCCNC(=O)Cn1nc(-c2ccccc2)ccc1=O,0.2,5.8
CN(C1=CC2=CC(=C(C#N)C#N)CCC2CC1)C1CCCCC1 (stereo not drawn),-0.3,nt
COC(=O)c1cc(-c2cccnc2)nc2ccccc12,-0.05,-0.005
CCOC(=O)C1CCN(C(=S)Nc2cccc(C)c2)CC1,nt,0
O=C(Cn1cnc2ccccc21)c1ccc(Cl)cc1,-1,-0.79
CC1(C)CC(NC(=O)c2ccccc2)CC(C)(C)N1,0.55,0.29
COC(=O)c1ccc(-c2ccccc2F)cc1,-0.25,-0.14
O=C(COC(=O)C1CC1)NCc1ccc(Cl)cc1,0.6,-0.01
NC(=O)C1CCN(Cc2nc(-c3cccs3)no2)CC1,-1.4,0.17
NC(=O)CSc1ccccn1,-0.4,nt
O=C(OCc1ccccc1F)C1COc2ccccc2O1 (stereo not drawn),0.2,nt
O=C(O)CSC1=CC(=O)N(c2cccc(Cl)c2)C1=O,0,-1.2
CC(C)(C)c1ccc(C(=O)Nc2ccccc2-c2cnn(-c3ccc(S(C)(=O)=O)cc3)c2)cc1,nt,0.12
CCOC(=O)c1c(C=O)oc2c(C)cc(OC(=O)c3cccc(C)c3)c(Br)c12,nt,-0.12
CCCC(c1nnnn1CS(=O)(=O)c1ccc(C)cc1)N1CCC(C(N)=O)CC1 (stereo not drawn),0.2,nt
CC(C)(CSc1ccccn1)NS(=O)(=O)c1ccc(Cl)cc1,-0.6,0.29
CC(C)C(=O)Nc1ccc(-c2nc3ccccc3c(=O)o2)cc1,-1.9,5.6
COc1cc2c(cc1NC(=S)Nc1ccc3c(c1)OCO3)oc1ccccc12,-0.05,5.9
CCOc1ccc(N=C2SC(C(=O)Nc3ccc(C(=O)O)cc3)CC(=O)N2Cc2ccccc2)cc1 (stereo not drawn),nt,-0.61
O=C1NC(=S)NC(=O)C1=C1C=C(c2ccccc2)N(CCN2CCOCC2)C2=C1CCCC2,-0.3,nt
N#Cc1ccccc1NC(=S)NCc1ccccc1,2.2,nt
CCSc1nnc(SCC(=O)N2CC(=O)Nc3ccccc32)s1,-0.3,nt
Cc1ccc(NCc2nnc(SCC(=O)N(Cc3ccccc3)C(C)(C)C)o2)c(C)c1,0.75,nt
COC(=O)c1c2c(n3ccccc13)C(=O)c1ccccc1C2=O,0.1,-0.18
Cc1cc(NC(=O)CCN2C(=O)/C(=C3\SC(=S)N(CCC(=O)Nc4cc(C)on4)C3=O)SC2=S)no1,-0.05,nt
CCCN1CCC(N(C(=O)c2cccc(NC(=O)c3ccc(C(C)(C)C)cc3)c2)C2CC2)CC1,nt,-0.31
N#C/C(=C(/O)CCN1C(=O)c2ccccc2C1=O)c1nc2ccccc2s1,0.05,nt
Cc1ccc(-n2nc3c(c2NC(=O)CCC2CCCC2)CSC3)cc1,0.2,0.66
O=C(O)C12CC3CC(CC(C3)C1)C2,-0.45,-0.57
CSc1nc2nc(C)c(CCC(=O)OCC(=O)Nc3ccc(F)cc3)c(C)n2n1,-0.65,nt
O=C(CSc1ccc(Cl)cc1)c1ccc[nH]1,-0.7,nt
O=C(OCc1cc(=O)n2cc(Br)ccc2n1)C1CC(=O)N(CCc2ccccc2)C1 (stereo not drawn),-0.05,nt
O=C(CC(=O)c1ccc2c(c1)OCCO2)c1ccccc1,0.5,3.4
CSC1=NC2(CCN(C(=O)NCc3ccccc3)CC2)N=C1c1ccccc1,0.35,-0.61

# Other structures follow.
SMILES,AID504770,CapD inh
CC(C)c1cc(C(=O)Nc2c(Cl)cccc2Cl)no1,0.3,0.18
O=C(Nc1ccccc1)Nc1ccc(-n2ccc(C(F)(F)F)n2)cc1,0.1,-0.59
O=C(COC(=O)[C@@H]1CCCN1S(=O)(=O)c1ccc(Cl)cc1)NCc1ccc2c(c1)OCO2,0.05,nt
FC(F)(F)c1cccc(-c2nnc(SCc3ccccc3)o2)n1,-0.65,-0.01

# An excerpt of these results, as labelled records:
Structure: C=CCN(CC=C)Cc1c(C)[nH]c2ccccc2c1=O
  AID504770: 0.55	CapD inh: 0.43

Structure: O=C(Cn1cnc2ccccc21)c1ccc(Cl)cc1
  AID504770: -1	CapD inh: -0.79

# Compounds as they come. Share with any hit: about 0.41%.
